Source: PubChem BioAssay
gsp ag: qHTS for Agonist of gsp, the Etiologic Mutation Responsible for Fibrous Dysplasia/McCune-Albright Syndrome: qHTS; hit rate 0.13% among 340,000; gsp mutant cells, cAMP HTRF, 30 min; control for the full effect not named in the record; Potency, µM (highest dose often 76.9 µM), for the others: top-dose activation (cAMP increase), actives largely listed as activators; active = well fitted activation curve with a large enough effect; inconclusive = small, poorly fitted or top-dose-only effect, or another doubt; inactive = no such curve, though single readings can be large or run the other way; cell line not stated here;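 also: phosphodiesterase inhibitor Ro 20-1724 added with compounds to block cAMP breakdown; potency is read from the fitted curve at half-maximal effect; nearly all actives have a fitted effect of over 60% in size; about a fifth of the inactives were tested at one dose only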
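Cells in DMEM/10% FBS with G418 were pretreated with compounds in DMSO plus […] (300 uM stock) for 30 min at 37C. cAMP was measured by HTRF (cAMP-d2 plus anti-cAMP antibody-K) after 30 min at room temperature.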
ClpP mod: qHTS Assay for Activators of ClpP; hit rate 1.9% among 340,000; ATP-dependent Clp protease proteolytic subunit (Bacillus subtilis (strain 168)), P80244; Potency, µM (top dose mostly 57.5 µM), without a hit: at the top dose activity change, negative = active; purified B. subtilis ClpP, FRET peptide cleavage, 20 min; active = well fitted falling curve with a large enough effect; inconclusive = small, poorly fitted or top-dose-only effect; inactive = no such curve, though single readings can be large or run the other way; also: potency is read from the fitted curve at half-maximal effect; the source files actives as falling curves though it sought activators and does not explain the sign; nearly all actives have a fitted effect of over 65% in size; many hits overshoot -100%
Target sequence (P80244 whole entry, looked up): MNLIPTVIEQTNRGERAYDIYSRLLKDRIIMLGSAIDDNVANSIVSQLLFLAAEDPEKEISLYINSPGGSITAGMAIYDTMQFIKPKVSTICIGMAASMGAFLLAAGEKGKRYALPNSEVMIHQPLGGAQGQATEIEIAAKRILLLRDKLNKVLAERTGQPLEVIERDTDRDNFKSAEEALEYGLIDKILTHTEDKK
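Purified B. subtilis ClpP, 10 microg/mL final in Tris/HCl pH8 with KCl, BSA, glycerol and Tween-20, cleaved an Abz/nitrotyrosine-quenched decapeptide. Fluorescence (ex 320, em 430) was read at 0 and 20 min at room temperature. Delta was normalized to 5.8 microM ADEP and DMSO/no-enzyme controls.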
TRPV1 potentiator: HTS Assay for Compounds that Act as Potentiators of the Vanilloid Receptor 1; Transient receptor potential cation channel subfamily V member 1 (Homo sapiens), Q8NER1; TRPV1-expressing cells, Fluo-8 calcium influx, capsaicin EC20 potentiation; host cell line not named in the record; control for the full effect not named in the record; potentiation, % at 8.33 µM; hit rate 0.02% among 320,000; active means potentiation above 80%; inconclusive means 30% to 80%; inactive means below 30%; also: 0% is about no effect
Target sequence (Q8NER1 whole entry, looked up): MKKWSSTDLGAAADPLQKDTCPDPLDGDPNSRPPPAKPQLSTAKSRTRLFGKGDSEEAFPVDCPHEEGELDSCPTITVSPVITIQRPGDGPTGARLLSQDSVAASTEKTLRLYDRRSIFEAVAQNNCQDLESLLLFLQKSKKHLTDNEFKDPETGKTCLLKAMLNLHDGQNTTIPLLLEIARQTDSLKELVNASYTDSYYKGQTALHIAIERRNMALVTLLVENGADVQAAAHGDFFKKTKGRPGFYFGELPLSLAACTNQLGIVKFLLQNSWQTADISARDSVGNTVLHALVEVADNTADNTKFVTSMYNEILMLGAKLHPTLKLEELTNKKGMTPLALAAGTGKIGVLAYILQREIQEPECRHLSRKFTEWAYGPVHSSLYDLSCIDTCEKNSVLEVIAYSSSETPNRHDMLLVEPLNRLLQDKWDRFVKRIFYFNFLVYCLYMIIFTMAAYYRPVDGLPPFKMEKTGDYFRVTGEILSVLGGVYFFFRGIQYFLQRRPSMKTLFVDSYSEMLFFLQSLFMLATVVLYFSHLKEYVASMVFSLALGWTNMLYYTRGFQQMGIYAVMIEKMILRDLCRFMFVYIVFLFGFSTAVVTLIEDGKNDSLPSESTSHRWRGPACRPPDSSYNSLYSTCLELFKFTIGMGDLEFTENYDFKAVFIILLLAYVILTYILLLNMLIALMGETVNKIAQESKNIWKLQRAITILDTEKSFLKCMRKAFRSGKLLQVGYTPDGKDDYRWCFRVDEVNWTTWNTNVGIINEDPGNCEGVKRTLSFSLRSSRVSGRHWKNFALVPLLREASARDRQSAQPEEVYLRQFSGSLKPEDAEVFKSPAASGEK
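Fluo-8 calcium influx in TRPV1-expressing cells, kinetic read (ex 480/em 520 nm). Compound added and read 3 min for agonist activity, followed by capsaicin at EC20 final and 2 min further read for enhancement.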
gsp antag: qHTS for Antagonists of gsp, the Etiologic Mutation Responsible for Fibrous Dysplasia/McCune-Albright Syndrome: qHTS. Potency, µM (series often up to 76.9 µM), for the others: at the highest dose activity change, negative = inhibition, most hits filed as inhibitors. hit rate 0.4% among 340,000. AID 624288, 2012. gsp-mutant cells, cAMP HTRF, 30 min; control for the full effect not named in the record; active = falling curve of any shape with a large fitted effect; inconclusive = falling curve, mostly with a smaller effect; inactive = flat or rising curve; cell line not stated here;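 also: intracellular cAMP measured with PDE inhibitor Ro 20-1724 present during compound exposure; potency is read from the fitted curve at half-maximal effect; % is scaled to controls: 0 for no effect and ±100 for the full control effect; nearly all actives have a fitted effect of over 65% in size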
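Cells, 2000/well, grown 16–24 h in DMEM 10% FBS with 0.5 mg/ml G418, then compounds plus […] (300 uM addition stock), 30 min at 37C. cAMP read by HTRF (cAMP-d2 and anti-cAMP antibody-K in lysis buffer) after 30 min RT.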
TRPML1 blocker: qHTS for Inhibitors of the Human Mucolipin Transient Receptor Potential 1 (TRPML1); hit rate 0.02% among 390,000; Mucolipin-1 (Homo sapiens), Q9GZU1; AID 624415, 2012; TRPML1-inducible cells, Ca2+ dye fluorescence, FDSS; active compounds read low; inhibition of EC80 agonist-evoked calcium signal; activity change, negative = inhibition, % (test concentration not listed); in the data active means activity change below about -50%; inconclusive means about -30% to -50%; inactive means above about -30%;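 also: stimulus is agonist 54-4 at its EC80 concentration; % is scaled to controls: 0 for no effect and ±100 for the full control effect; compound concentration not given in the record; the text of the record puts the active cut at -80%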
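Calcium fluorescence in TRPML1-DL cells induced overnight with Tet: a 110 s read after compound pin addition, then a 110 s antagonist read after challenge with 54-4 at 4 uM final (EC80).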
Menin-MLL FL inh: qHTS Assay for Inhibitors Targeting the Menin-MLL Interaction in MLL Related Leukemias: Competition With Fluorescein Labeled MLL-derived Peptide. Fluorescence polarization, fluorescein-MLL peptide displacement from menin. FP activity change, % at 61.4 µM. 290,000 tested, under 10 active; inconclusive = falling polarisation curve, or a change in total fluorescence; inactive = total fluorescence flat and polarisation flat or rising; no compound was filed as active; the % refers to the polarisation; negative = inhibition;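 also: % of control where 0% means no effect; inhibitors lower the polarisation; unlabelled MLL peptide was the positive control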
Sfp inh: qHTS Assay for Inhibitors of Bacillus subtilis Sfp phosphopantetheinyl transferase (PPTase). 4'-phosphopantetheinyl transferase ffp (Bacillus subtilis), Q9F4F7. Biochemical Sfp PPTase activity, qHTS. Potency, µM, for the others: max response, negative = inhibition, hits mostly inhibitors. hit rate 3.5% among 310,000; active = well fitted inhibition curve with a large enough effect; inconclusive = small, poorly fitted or top-dose-only effect, or another doubt; inactive = no such curve, though single readings can be large or run the other way;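 also: the enzyme is Sfp with the accession as filed and its product quenches rhodamine fluorescence; potency is read from the fitted curve at half-maximal effect; 0% = enzyme reaction without inhibitor and -100% = no enzyme wells; top concentration of the series not given in the record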
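Fluorescence-quenching assay with 15 nM Sfp, 5 uM rhodamine-CoA and 12.5 uM BHQ-2-labelled ybbR peptide in pH 7.6 Hepes/MgCl2 buffer. Enzyme was pre-incubated with compound for 15 min at room temperature. Rate was taken from the 30-min fluorescence change (525/598 nm).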
* hit, by the source's call; u = inconclusive; x = not tested or not shown; & = joins results of further samples; [ ] = another dose, or the depositor's remark.

SMILES	gsp ag	ClpP mod	TRPV1 potentiator	gsp antag	TRPML1 blocker	Menin-MLL FL inh	Sfp inh
COc1cccc(/C=C2\SC(=O)N(CCC(=O)NNC(=O)c3ccccc3Cl)C2=O)c1	3%[15.4 µM]	1.6%	5	u	19	1.5	-24%
OCCC1CN(Cc2cc(F)ccc2-n2cccn2)CCN1C1CCCC1 (stereo not given)	u	-0.8%	-4	2%	7	2.4	16%
CN=c1scc(C)n1/N=C/c1cc(Br)c(O)c(OC)c1	3%[15.4 µM]	0.2%	-7	3%	22	-1.6	-14%
CS(=O)(=O)CC(=O)Nc1ccc2nc3n(c(=O)c2c1)CCCCC3	-14%[15.4 µM]	x	-9	11%	-7	-1.2	19%
COc1ccccc1NC(=O)C(C)OC(=O)C1CCN(S(=O)(=O)c2ccccc2C(F)(F)F)CC1 (stereo not given)	-1%	-1.8%	x	-11%	61	x	x
O=C(Nc1ccc(Br)cc1)C1CC(O)CN1C(=O)Oc1ccccc1 (stereo not given)	27%	x	8	2%	6	4.2	11%
c1ccc(CSc2ccc(-c3cccnc3)nn2)cc1	6%	x	-17	16%	-1	2.8	7%
O=C(COC(=O)c1cnccn1)NCCc1ccc(Cl)cc1Cl	1%	-1.3%	-22	-4%	-11	-0.2	18%
Cc1ccccc1NC(=O)CCN1CCN(Cc2ccccc2)CC1	-8%	-0.5%	u	9%	-1	-0.9	-5%
C[C@H](NC(N)=O)C(=O)N1CCN(S(=O)(=O)c2ccc3ccccc3c2)CC1	-8%[15.4 µM]	x	5	0%	11	5.4	10%
CCC(=O)Nc1ccccc1Oc1ccccc1	4%	-0.5%	26	-4%	-14	-9.2	11%
Cc1oc2ccc(OCc3ccc(F)cc3)cc2c1C(=O)O	-18%	-15%	u	-7%	-4	0.9	-5%
Cc1ccc(OCC(=O)N/N=C2\CC(=O)CC(C)(C)C2)c(Br)c1	19%	-1.8%	-35	2%	19	x	16%
CC1CN(C(=O)CSc2nnc(C3CCCCC3)n2N)CC(C)O1 (stereo not given)	-14%	1.1%	x	10%	-7	x	x
Cc1cccc(N(C)S(=O)(=O)c2c(C)noc2C)c1	8%	0.8%	19	3%	-12	1.0	7%
COc1ccc(C)cc1NC(=O)C(OC(=O)C1CC1)c1ccccc1 (stereo not given)	-6%[15.4 µM]	-1.2%	-20	-18%	16	-0.4	13%
COc1ccc([N+](=O)[O-])cc1NC(=O)C(C)N(C)Cc1cccc(OC)c1OC (stereo not given)	-34%[inhibitor]	1.1%	-16	-34%	2	4.1	-10%
c1ccc2cc(OCc3nc4ccccc4[nH]3)ccc2c1	-6%	-0.9%	2	-7%	0	-2.1	2%
S=c1[nH]cc(-c2ccccc2)n1-c1cccc(Cl)c1	-21%	-4.7%	u	-5%	-5	x	-9%
COc1ccc(CCNC(N)=S)cc1OC	u	-12%	12	11%	1	4.3	9%
CCOC(=O)C1CCN(C(=O)c2ccc(Cl)c(S(=O)(=O)N3CCOCC3)c2)CC1	15%	0.0%	3	-10%	-10	5.5	15%
Cc1ccc(-c2cc(C(=O)O)c3cc(Br)ccc3n2)o1	u	u	8	12%	u	x	3.2µM*
C=CCOCCN1C(=O)C2C(c3ccccc3)C=CC(c3ccccc3)C2C1=O (stereo not given)	-24%	-1.8%	-17	-26%	7	2.0	14%
COC(=O)/C=C1\S/C(=N\N=C\CC(=O)OC)NC1=O	-11%[15.4 µM]	x	15	-6%	2	u	u
CCOc1ccc(CNC(=O)Nc2ccccc2)cc1	18%[15.4 µM]	-1.0%	-2	-13%	-4	-1.3	-7%
COc1ccc(CC(=O)Nc2ccc3nc(SC)sc3c2)cc1OC	u	x	-9	-18%	-8	-3.7	6%
Cc1c(Br)c([N+](=O)[O-])nn1CC(=O)c1ccccc1	3%	2.2%	7	13%	12	-5.5	16%
CSc1ccccc1NC(=O)c1cccnc1	-2%	-2.9%	7	5%	-13	-3.2	-10%
CC1(C)CC(=O)C/C(=N\NC(=O)CCc2ccc(S(=O)(=O)N3CCOCC3)cc2)C1	2%[15.4 µM]	x	2	2%	-3	0.5	23%
CCn1c(SCC(=O)Nc2nccs2)nnc1-c1ccc(S(=O)(=O)N2CCCCCC2)cc1	20%	12%	-2	40µM*	0	1.9	16%
O=C(CCC1CCCCC1)Nc1ccc(S(=O)(=O)Nc2nccs2)cc1	-53%[inhibitor]	1.8%	18	-8%	-11	-0.4	9%
O=C(NCC1CCCO1)c1ccc(S(=O)(=O)N2CCCCC2)cc1 (stereo not given)	-12%	0.0%	29	8%	5	1.8	26%
O=C(CNC(=O)c1ccco1)NCc1ccc2c(c1)OCO2	-4%[15.4 µM]	1.1%	x	16%	-10	x	x
CC[N+](CC)(CC=C(C)C)CC(=O)OC	-1%	-1.2%	-6	-9%	7	-0.5	13%
Cc1cc(C)n2c(=O)[nH]nc2c1	19%	x	x	-6%	-11	x	x
Cc1ccc(NC(=O)CSc2nc(-c3cccs3)nc3cc(=O)[nH]n23)cc1C	x	3.2%	13	x	15	x	x
CCC(=O)N1c2ccc(S(=O)(=O)N3CCN(CC)CC3)cc2CC1C (stereo not given)	18%	0.4%	0	14%	-5	x	-3%
COc1ccc(-c2cc(C(F)(F)F)nc(SCC(=O)Nc3cc(C)on3)n2)cc1OC	3%	13µM*	26	3%	-5	-0.4	-14%
O=C(Nc1ccc2c(c1)C(=O)N(CC1CCCO1)C2=O)c1cccc(Br)c1 (stereo not given)	-20%	32µM*	-14	u	-9	4.2	-6%
CC1(C)CC(=O)c2sc(NC(=O)c3ccco3)nc2C1	-25%	-9.3%	6	-13%	18	-6.1	-1%
COc1ccc(C2CC(=O)CCN2S(=O)(=O)c2ccc(C)cc2)cc1 (stereo not given)	x	-0.6%	x	-2%	13	x	x
Cc1ccc(S(=O)(=O)N2CCCN(S(=O)(=O)c3ccc4c(c3)OCCO4)CC2)cc1	3%	0.0%&0.7%	-3	-19%	4	7.0	2%
COc1ccccc1S(=O)(=O)Cc1ccc(C(=O)N2CCN(c3ccc(C)cc3)C(C)C2)o1 (stereo not given)	-30%[inhibitor]	-1.3%	3	-14%	-12	21	-2%
CC(/C=C1\SC(=Nc2cccnc2)NC1=O)=C\c1ccccc1	-9%[15.4 µM]	-0.7%	x	-2%	19	u	14%
COc1cc(/C=C/C(=O)O)cc(S(=O)(=O)N(CC(C)C)CC(C)C)c1OC	9%[15.4 µM]	x	2	-12%	4	-0.4	11%
CCCN1C(=O)S/C(=C\c2ccc(N3CCOCC3)o2)C1=O	2%[15.4 µM]	x	23	-2%	4	u	3.2µM*
CCC(=O)Oc1ccc(NC(=O)CSCc2ccccc2)cc1	16%	-3.2%	2	u	15	-1.4	16%
N=C1/C(=C/c2cccs2)C(=O)N=C2SN=C(SCc3ccccc3)N12	16%	-0.8%	u	32µM*	-7	0.6	4%
O=C(CN1CCN(C(=O)c2ccco2)CC1)Nc1ccccc1-c1ccccc1	0%	1.0%	23	-2%	-4	5.8	-16%
COCCn1c(=S)[nH]c2cc(C(=O)N3CCN(c4ccccc4OC)CC3)ccc2c1=O	5%	1.2%	-4	-3%	-14	-0.1	1%
COc1ccc(Nc2ncnc3c2cnn3Cc2ccccc2)cc1OC	-12%	0.2%	-3	4%	-8	-0.1	8%
COC(=O)c1[nH]c2ccccc2c1NC(=O)CCN1CCSCC1	u	u	-5	5%	-18	0.8	8%
O=C(Nc1cc(-c2nn(CC(=O)N3CCCCC3)c(=O)c3ccccc23)ccc1N1CCOCC1)c1ccc(Cl)cc1	0%	-2.9%	22	-2%	-9	-3.5	17%
CCOc1ccc(NC(=O)COC(=O)C2COc3ccccc3O2)cc1 (stereo not given)	-8%	2.8%	x	x	0	x	x
CCn1c(C)nnc1SCC(=O)Nc1cccc(Cl)c1	-14%	-5.0%	-11	-2%	6	0.0	10%
COC(=O)COc1ccc(S(=O)(=O)Nc2ccc(C(N)=O)cc2)cc1Cl	2%	0.7%	-10	-11%	0	0.4	5%
O=C(c1sc2cc([N+](=O)[O-])ccc2c1Cl)N1CCOCC1	-22%	-0.3%	4	-1%	-10	7.4	5%
Cc1nnc(Nc2ccc(C(=O)N3CCOCC3)cc2)c2ccccc12	u	-2.5%	-4	-1%	-7	-0.8	9%
COc1cc(OC)cc(C(=O)N[C@H](C(=O)OCC(=O)Nc2ccc(F)c(F)c2)C(C)C)c1	-7%	-3.2%	-1	u	18	6.1	6%
CCOCc1nnc(NC(=O)c2cccs2)s1	7%	-0.2%	-3	6%	-3	-0.1	-6%

Other results follow:
SMILES	gsp ag	ClpP mod	TRPV1 potentiator	gsp antag	TRPML1 blocker	Menin-MLL FL inh	Sfp inh
COC(=O)C(CCSC)NS(=O)(=O)c1ccc(Cl)cc1 (stereo not given)	-1%	2.1%	-11	1%	4	-6.1	14%
CC(C)NC(=O)COC(=O)/C=C/c1ccco1	2%	-0.9%	-7	0%	-8	6.7	50µM*
Cc1ccc2cc(COC(=O)c3ccco3)c(=O)[nH]c2c1	u	-15%	30	-3%	-12	0.6	-21%
O=C(CCN1CCN(CCO)CC1)Nc1ccc(C2CCCC2)cc1	-16%	0.1%	-2	9%	4	-5.5	-6%
CCSc1nc2c(c(=O)[nH]c(=O)n2C)n1Cc1ccc(Cl)cc1	5%	-1.9%	u	13%	-12	0.5	1%
